Assay outcomes deposited in PubChem BioAssay by National Center for Advancing Translational Sciences (NCATS).
VDR inhibitor: Inhibitors of the vitamin D receptor (VDR): qHTS; Potency, µM, without a hit: max response, negative = inhibition, actives largely listed as inhibitors; Vitamin D3 receptor (Homo sapiens), P11473; hit rate 0.93% among 400,000; VDR-SRC2-3 peptide fluorescence polarization, 2 h; active = well fitted inhibition curve with a large enough effect; inconclusive = small, poorly fitted or top-dose-only effect, or another doubt; inactive = no such curve, though single readings can be large or run the other way; also: series mostly up to about 120 µM
Target sequence (P11473 whole entry, looked up): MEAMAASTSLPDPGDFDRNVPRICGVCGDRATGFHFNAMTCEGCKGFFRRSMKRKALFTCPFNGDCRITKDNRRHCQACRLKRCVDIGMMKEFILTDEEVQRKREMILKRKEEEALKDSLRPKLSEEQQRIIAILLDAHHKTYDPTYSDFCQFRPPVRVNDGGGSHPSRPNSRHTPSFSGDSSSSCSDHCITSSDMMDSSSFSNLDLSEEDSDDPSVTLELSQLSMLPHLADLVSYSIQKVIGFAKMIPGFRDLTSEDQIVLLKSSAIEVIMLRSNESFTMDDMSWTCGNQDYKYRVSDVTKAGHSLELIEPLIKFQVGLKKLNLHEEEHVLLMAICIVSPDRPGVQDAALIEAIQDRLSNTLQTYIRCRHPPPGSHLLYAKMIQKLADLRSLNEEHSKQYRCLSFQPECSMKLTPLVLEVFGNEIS
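FP read-out; VDR + SRC2-3 coactivator peptide; 23 nl compound by pintool; 2 h RT incubation; reagents held at 4 deg C, protected from light.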
* = called active by the depositor; ? = inconclusive; & = joins results of further samples. % is scaled to controls: 0 for no effect and ±100 for the full control effect; potency is read from the fitted curve at half-maximal effect. This is a subset, so the mix of outcomes need not match the whole.

SMILES	VDR inhibitor
O=C(NC1CCCCC1)c1ccc(Cn2cc(Br)cn2)o1	6%
COC(=O)c1ccc(NC(=O)CN2CCN(c3ccccc3C)CC2)cc1	15%
COc1cc(C)c(NC(=S)Nc2ccc(Cl)c(Cl)c2)cc1OC	-13%
Cc1ccnc(SCCn2c(N3CCC(C)CC3)nc3c2c(=O)n(C)c(=O)n3C)n1	0%
CN(C)c1cccc(C(=O)OCCNC(=O)c2cccc(S(=O)(=O)N3CCOCC3)c2)c1	-2%
O=C(COc1cccnc1[N+](=O)[O-])Nc1ccc2c(c1)OC(F)(F)O2	-16%
Cc1ccc(C)c(NC(=O)CN(C)S(=O)(=O)c2ccc(F)cc2)c1	30%
CC(NC(=O)c1sc2ccccc2c1Cl)C1CCCO1 (centres undefined)	-13%
O=C(NNC(=O)c1cc(OCC(F)(F)F)ccc1OCC(F)(F)F)c1ccc(Cl)c(Cl)c1	3%
CC(=O)N/C(=C/c1ccc(OC(F)F)cc1)C(=O)O	-8%
O=c1c2ccccc2nnn1CSc1nnc(Nc2ccccc2)s1	-5%
CCC(=O)Nc1nc(C)c(-c2csc(Nc3ccccn3)n2)s1	22%

Arranged by length of the SMILES (largest number first): some entries from above.
SMILES	VDR inhibitor
O=C(NNC(=O)c1cc(OCC(F)(F)F)ccc1OCC(F)(F)F)c1ccc(Cl)c(Cl)c1	3%
Cc1ccc(C)c(NC(=O)CN(C)S(=O)(=O)c2ccc(F)cc2)c1	30%
COC(=O)c1ccc(NC(=O)CN2CCN(c3ccccc3C)CC2)cc1	15%
O=c1c2ccccc2nnn1CSc1nnc(Nc2ccccc2)s1	-5%

A second format for part of the listing above.
Cc1ccnc(SCCn2c(N3CCC(C)CC3)nc3c2c(=O)n(C)c(=O)n3C)n1
  VDR inhibitor: 0%
CN(C)c1cccc(C(=O)OCCNC(=O)c2cccc(S(=O)(=O)N3CCOCC3)c2)c1
  VDR inhibitor: -2%

Going on with the list:
SMILES	VDR inhibitor
CCNC(=O)CN(c1ccc(C)cc1)S(=O)(=O)c1ccccc1	5%
O=c1[nH]c2cc(NCCO)c([N+](=O)[O-])cc2[nH]1	-8%
O=C(NC1=NCCS1)c1cc(-c2cccs2)nc2ccccc12	-16%
CCc1ccc(NC(=O)CSc2nnc(C)c(=O)n2N)cc1	2%
CN(Cc1ccccc1)C(=O)c1cccc(NC(=O)c2nsc3ccccc23)c1	10%
O=C(CCC(=O)Nc1ccc(Br)cc1)N/N=C/c1ccccc1O	1%
NS(=O)(=O)c1ccc(CNC(=O)/C=C/c2c(F)cccc2Cl)cc1	-1%
O=C(CSc1nncs1)NNC(=O)c1ccccc1Br	-1%
CCC(Sc1nncn1C)C(=O)Nc1nnc(-c2ccc(Cl)cc2)s1 (centres undefined)	-19%
O=C(O)c1cnn2c(C(F)(F)F)cc(-c3ccccc3)nc12	22%
Cc1ccc(NS(=O)(=O)c2ccc3[nH]c(=O)oc3c2)c(C)c1	?
COc1ccc(C2C3=C(CC(C)(C)CC3=O)Nc3c2c(=O)[nH]c(=O)n3Cc2ccccc2)cc1OC (centres undefined)	6%

SMILES	VDR inhibitor
O=C(COC(=O)c1cc(S(=O)(=O)N2CCOCC2)c(Cl)cc1Cl)Nc1ncc(C(F)(F)F)cc1Cl	7%
COc1ccc(OC)c(/C=C(\C#N)c2nc(-c3ccc(F)cc3)cs2)c1	9%
O=C(COC(=O)CCN1C(=O)/C(=C\C=C\c2ccccc2)SC1=S)Nc1ccc(Br)cc1	-13%
COc1ccc(S(=O)(=O)N(C)c2ccc(C(=O)N3CCN(C)CC3)cc2)cc1	13%
COc1ccccc1NC(=O)c1cc2c(=O)oc3ccc(C)cc3c2s1	-5%
Cn1c(=O)c2c(nc(-n3ccnc3)n2Cc2ccc(Cl)cc2Cl)n(C)c1=O	6%
COc1ccc(CC(=O)NNC(=O)c2ccccn2)cc1	2%
CCOc1ccc(NC(=O)c2ccc(Cl)c(NC(=O)c3ccco3)c2)cc1	8%
COc1nc(C#N)c(N2CCOCC2)o1	-19%
CCCCCCOc1ccc(OCC(O)CN2C(=O)NC(C)(C)C2=O)cc1 (centres undefined)	7%
COc1cc(SC)ccc1C(=O)OCc1nc2ccsc2c(=O)[nH]1	?
Cc1ccc(OCCNC(=O)c2cc(C3CC3)nc3c2cnn3C(C)C)cc1	-8%

SMILES	VDR inhibitor
CC(C)c1ccc(S(=O)(=O)c2nnn3c2nc(N2CCCC2)c2sccc23)cc1	1%
Cn1c(SCCC(=O)O)nnc1-c1ccncc1	-7%
COc1cc(/C=C2\SC(=S)N(NC(=O)c3ccncc3)C2=O)ccc1O	0%
O=C(CCl)N1CCN(S(=O)(=O)Cc2ccccc2)CC1	-9%
C=CCn1c(Cc2cccs2)nnc1SCC(=O)NC1CC1	-5%
CC1CCCCC12NC(=O)N(Cn1nnc3ccccc3c1=O)C2=O (centres undefined)	-6%
COc1ccccc1N(CC(=O)NC1CCCCC1)C(=O)CNC(=O)c1cccs1	12%
CC(C)c1nc(SCC(=O)NC2CCCC2)c2c(=O)n(C)c(=O)n(C)c2n1	4%
CN(C(=O)c1ccncc1)C1CC(C)(C)N(O)C(C)(C)C1	-4%
CSCC[C@H](NC(=O)COc1ccc(Cl)cc1Cl)c1nc2ccccc2[nH]1	-8%
O=C(CCN1CCN(Cc2ccccc2)CC1)Nc1cccc(Br)c1	-17%
O=S(=O)(c1ccc(Br)cc1)N1CCOC12CCCCC2	-18%

Next section, overlapping the part above by 4 compounds.
mol | VDR inhibitor
CN(C(=O)c1ccncc1)C1CC(C)(C)N(O)C(C)(C)C1 | -4%
CSCC[C@H](NC(=O)COc1ccc(Cl)cc1Cl)c1nc2ccccc2[nH]1 | -8%
O=C(CCN1CCN(Cc2ccccc2)CC1)Nc1cccc(Br)c1 | -17%
O=S(=O)(c1ccc(Br)cc1)N1CCOC12CCCCC2 | -18%
COc1ccccc1NC(=O)c1cc(S(=O)(=O)N2CCN(c3ccccc3Cl)CC2)ccc1F | 8%
COc1ccc2c(c1)Cc1sc(NC(=O)c3ccccc3Br)nc1-2 | ?
O=C(NCc1ccco1)c1nn2cccnc2c1Cl | -5%
COc1ccc(NC(=O)c2c(C)oc3ccc(O)c(CN4CCCCCC4)c23)cc1Cl | 4%
COc1cc(/C=N/NC(=O)CN(Cc2ccccc2)S(=O)(=O)c2ccc3c(c2)OCCO3)ccc1O | -22%
CC(NC(N)=O)C(=O)NCC(=O)OCc1ccccc1 (centres undefined) | -16%
CN(C(=O)COC(=O)c1ccc(S(=O)(=O)N2CCCC2)cc1)c1ccccc1 | -9%
Cc1ccc(C2=NOC(=O)/C2=C\C=C\c2ccccc2)cc1 | -2%
COc1ccc(C(=O)OCC(=O)Nc2ccc(F)c(F)c2)cc1OC | 3%
CCn1c(SCC(=O)Nc2ccc(C)c(C)c2)nnc1-c1nonc1NC(C)=O | 1%
COc1ccc(CC(=O)NCCc2cnc[nH]2)cc1 | 17%
COc1ccc(C(C)C)cc1S(=O)(=O)N1CC(C)OC(C)C1 (centres undefined) | -18%
CC(C)[C@H](NC(=O)c1ccccc1)C(=O)NC1=NCCS1 | -21%
CCCCn1c(N)c(N(CCOC)C(=O)CCN2C(=O)C3CC=CCC3C2=O)c(=O)[nH]c1=O (centres undefined) | -4%
COc1ccc(NC(=O)CCNC(=O)N2CC(=O)Nc3ccccc32)c(OC)c1 | 2%
CCC(C)[C@H](NC(=O)N1CCn2c1nc1ccccc12)C(=O)NCC1CCCO1 (some centres undefined) | -4%
Cc1occc1C(=O)Nc1nn[nH]n1 | -6%
NC(=O)c1cccc(S(=O)(=O)N2CC(c3ccccc3)CC2=O)c1 (centres undefined) | -16%
CC(C)Nc1nc2cccnc2s1 | 8%
CCC(c1nnnn1Cc1ccccc1)N1CCN(c2ccc(OC)cc2)CC1 (centres undefined) | 8%

mol | VDR inhibitor
COc1ccccc1Nc1nc(N)nc(CN2CCOCC2)n1 | -14%
Cc1cc(C(=O)O)cc(S(=O)(=O)NNC(=O)c2cccs2)c1C | -8%
CC(C)(C)c1ccc(S(=O)(=O)N2CCN(c3nc(-c4cccs4)nc4ccccc34)CC2)cc1 | 4%&-8%
CC(C)C(=O)Nc1cccc(NC(=S)NC(=O)C(c2ccccc2)c2ccccc2)c1 | -10%
Cc1ccsc1C(=O)OCC(=O)N1CCN(C(=O)c2ccco2)CC1 | -6%
O=C1CCCC(=O)N1c1ccc(N2CCN(c3ccccc3)CC2)c([N+](=O)[O-])c1 | -3%
COc1cccc(C2=NOC(C(=O)NCc3ccccc3)C2)c1 (centres undefined) | 16%
CCS(=O)(=O)c1ccc(C(=O)NC2CC2)c(Cl)c1Cl | -6%
CSCC[C@H](NC(=O)[C@H](CC(C)C)NC(=O)CNC(=O)[C@H](Cc1ccc(O)cc1)NC(=O)[C@H](Cc1ccccc1)NC(=O)[C@H](CCC(N)=O)NC(=O)[C@H](CCC(N)=O)NC(=O)[C@@H]1CCCN1C(=O)[C@H](CCCCN)NC(=O)[C@@H]1CCCN1C(=O)[C@@H](N)CCCN=C(N)N)C(N)=O | -11%
Cc1cccc(C2c3[nH]c4ccccc4c3CCN2C(=O)Cc2nc(-c3ccccc3)n[nH]2)n1 (centres undefined) | -2%
c1ccc(CN2C3=NCCCN3c3ccccc32)cc1 | -19%
Cc1nnc(NC(=O)C(=O)c2cc(C)n(-c3ccc(C)c(C)c3)c2C)s1 | 0%
COc1ccc(OC)c2[nH]c(=O)c(CCNC(=O)c3ccc4c(c3)OCO4)cc12 | -18%
CC(=O)C(=Cc1ccc(C(=O)O)cc1)C(C)=O | ?
CC1=C(C(N)=O)C(c2ccccc2F)n2nc(CCCO)nc2N1 (centres undefined) | ?
COc1cccc(CNC(=O)c2sc3nc(C)cc(C)c3c2-n2cccc2)c1OC | -13%
Cc1cccc(N2CCN(c3ccc(C(=O)O)cc3NC(=O)c3cccc(Cl)c3)CC2C)c1 (centres undefined) | 5%
CCCCCOC(=O)C1=C(C)NC(=O)NC1c1ccc(N(C)C)cc1 (centres undefined) | -6%
CC(C)CCn1c(-c2nonc2N)nc2ccccc21 | 4%
Cn1c(SCc2ccc(F)cc2)nnc1-c1cccs1 | 7%

mol | VDR inhibitor
Cc1cccc(NC(=O)C2CCN(S(=O)(=O)c3cccs3)CC2)n1 | -23%
COc1ccccc1NC(=O)NC1CCCc2ccccc21 (centres undefined) | 4%
COc1ccc(C)cc1NC(=O)C1CCCN1S(=O)(=O)c1ccc2c(c1)CCC(=O)N2 (centres undefined) | 1%
O=C(OCC1CCNCC1)c1ccc2c(c1)OCO2 | -16%
O=C(Cc1ccc(F)cc1)N/N=C/c1ccc2c(c1)OCO2 | -14%
OC(COc1ccc2c(c1)OCO2)CN1CCN(c2ccccc2)CC1 (centres undefined) | 3%
CC(NCc1ccccc1OC1CCCC1)c1ccccc1 (centres undefined) | -12%
CC(NC(=O)c1ccccc1)C(=O)OCn1nnc2ccccc2c1=O (centres undefined) | 3%
CCOC(=O)N1CCC(NC(=O)CS(=O)Cc2nc(-c3ccc(Cl)cc3)oc2C)CC1 (centres undefined) | -12%
CC1CC1C(=O)Nc1ccc(S(=O)(=O)N2CCCCC2)cc1 (centres undefined) | 10%
COc1ccc(CNC(=O)C(CC(C)C)N2Cc3ccccc3C2=O)cc1 (centres undefined) | 5%
CCOc1cccc(-c2nn3c(-c4ccccn4)nnc3s2)c1 | -9%
CCN(CC)CCNC(=O)c1cn(CC)c2ccc(S(=O)(=O)N(C)C3CCCCC3)cc2c1=O | -18%&-4%
CC(C)(C)NS(=O)(=O)c1ccc(C(=O)Nc2ccc3c(c2)OCO3)cc1 | -21%
O=C(Nc1ccc([N+](=O)[O-])cc1)N1CCCCCC1 | 9%
Cc1c(Cl)cccc1-n1nnc(-c2nc(-c3ccc4c(c3)OCO4)no2)c1C | 5%
CCOC(=O)C1=C(N)N(c2ccc(N3CCCCC3)cc2)C(=O)C1 | 3%
Cc1cc(/C=C2\SC(=O)N(C)C2=O)c(C)n1-c1ccc(S(N)(=O)=O)cc1 | 7%
COc1cccc(C2C3(C#N)C(N)=NC(OC)(OC)C23C#N)c1 (centres undefined) | -8%
C=C[C@]1(C)CC(=O)[C@@]2(O)[C@@]3(C)C(O)CCC(C)(C)C3C(O)C(OC(C)=O)[C@@]2(C)O1 (some centres undefined) | 1%

mol | VDR inhibitor
COc1ccc(C(C)(C)C)cc1NC(=O)COC(=O)C1=NNC(=O)CC1 | -24%
Cc1ccc(C)c(-n2c(SCC(N)=O)nnc2-c2ccccn2)c1 | 12%
CC(=O)N1CCN(C(=O)c2ccc3c(c2)S(=O)(=O)c2ccccc2C3=O)CC1 | 22%
COCCn1c(=O)c(-c2ccccc2)nc2cnc(N3CCNCC3)nc21 | -19%
O=C(Nc1ccccc1C(=O)N1CCOCC1)c1ccncc1 | -15%
Oc1ccc(Br)cc1-c1ccnn1-c1ccccc1 | 1%
CCC(C)[C@H](NC(=O)C1CC(=O)N(c2ccc3c(c2)OCCO3)C1)C(=O)N1CCCCC1 (some centres undefined) | 1%
CN(CCCC(=O)Nc1ccc(OC(F)F)cc1)S(=O)(=O)c1ccc(F)cc1 | -3%
CC(C)CNS(=O)(=O)c1ccc(CCC(=O)NCc2ccncc2)cc1 | ?
Cc1nc(NCCCN2CCOCC2)c2cnn(-c3ccccc3)c2n1 | -5%
CCOC(=O)c1[nH]c(C)c(C(=O)OCC(=O)N(Cc2ccccc2)C(C)C)c1C | 1%
COc1ccc(NC(C(=O)Nc2cccc(C(C)=O)c2)c2ccccc2)cc1 (centres undefined) | -13%
